# NPYLR7 agonist = agonists of mosquito NPYLR7 receptor, primary screen, cell-based, Aedes aegypti, calcium fluorescence, mosquito biting behavior. Aedes aegypti neuropeptide Y-like receptor 7 (NPYLR7). HEK293T NPYLR7/Galpha15, GCaMP6s calcium fluorescence. activation, % at 10 µM. 270,000 tested, 0.15% active. AID 1259423, 2018; in the data active means activation above about 40%;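 further: 0% = vehicle and 100% = reference agonist at the receptor; some compounds past the cut are filed as inactive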
# NPYLR7 agonist max-min = second read-out of NPYLR7 agonist, no call of its own (marks repeat the call); activation, %; measured here: Max-Min RFU normalised activation; some inactives read as strong as hits;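 span of the calcium signal over five minutes; 0% = vehicle and 100% = native peptide agonist; compound fluorescence can raise it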
# * marks the source's active call; other numbers are inactive results; & = joins results of further samples. Not all compounds are listed; count on the stated rates, not on these rows.
no.	SMILES	NPYLR7 agonist max-min	NPYLR7 agonist
1	CCCCC(=O)N1CC(C)N(C(=O)CCCC)CC1C (stereo unspecified)	9	10
2	CC(c1ccc(NC(=O)c2ccccc2Cl)cc1)N1CCOCC1 (stereo unspecified)	-21	-18
3	CCOC(=O)c1cnn(-c2cc(Oc3ccc(NC(C)=O)cc3)nc(SC)n2)c1C	13	7
4	O=C(c1cccc(Cl)c1)N1CCN(c2nc3nccc(-c4cccc(C(F)(F)F)c4)n3n2)CC1	2	2
5	Cn1cc(C(=O)Nc2ccc(F)c(F)c2)c2[nH]c(=O)n(-c3ccc(Cl)cc3)c(=O)c21	-2	3
6	CCCCC(=O)N(C)c1c(CC)nc2c(OCc3ccc(S(C)(=O)=O)cc3)cccn12	5	1
7	CC(=O)N1CCN(c2ccc(S(=O)(=O)N3CCN(C)CC3)cn2)CC1	-3	-4
8	Cc1oc2cc(O)ccc2c(=O)c1Oc1ccc(F)cc1	-5	-3
9	Cc1ncsc1CNCCCNc1ccccc1	2	5
10	COCCCN(C(=O)C=Cc1c(C)nn(C)c1C)c1c(N)n(CC(C)C)c(=O)[nH]c1=O	4	2
11	CCc1[nH]n(-c2ccc(Cl)cc2)c(=O)c1C1=C([n+]2ccccc2)C(=O)N(c2cccc(C)c2)C1=O	6	10
12	Cc1cc(NC(=O)Cc2cccs2)n(-c2nc(-c3ccc(F)cc3)cs2)n1	-10	-7
13	N#CC1(NC(=O)CCOc2ccc(Br)cc2F)CC1	-5	-3
14	O=C(NCc1ccccn1)c1nn(-c2ccccc2F)c(=O)n(Cc2cccc(C(F)(F)F)c2)c1=O	11	13
15	Cc1cc2cccc(C(=O)N3CCOC4(CNCCOC4)C3)c2o1 (stereo unspecified)	4	5
16	CN(Cc1nc2sc3c(c2c(=O)[nH]1)CCC3)C1CCS(=O)(=O)C1 (stereo unspecified)	11	-1
17	CCCCCCSc1nnc2c(n1)OC=Nc1ccccc1-2	5	8
18	CC(=O)NCC1=CCCN(CCOc2cccc(C)c2C)C1	6	2
19	CCn1c(SCc2ccc3c(c2)C(=O)c2ccccc2C3=O)nnc1-c1cc(-c2ccccc2)nc2ccccc12	8	0
20	Cc1cc(Br)ccc1NCC(=O)N1CCCCC1	2	1
21	O=C1Nc2cccc(Br)c2C1=O	3	-1
22	O=C(O)CON=C1c2ccccc2-c2ccccc21	6	1
23	CCOC(=O)c1c(NC(=O)COCc2ccccc2)sc2c1CCCC2	4	9
24	Cc1nnc(NC(=O)Cc2c(Cl)cccc2Cl)s1	-10	-7
25	CCc1[nH]n(C)c(=O)c1C1=C(N2CCCCC2)C(=O)N(c2ccc(OC)cc2)C1=O	-3	-5
26	Cc1cccc2oc(-c3ccc(Cl)c(N)c3)nc12	-8	-5
27	COc1cccc(CN(CC2CC(c3ccc(Cl)c(Cl)c3)=NO2)C(=O)c2ccco2)c1 (stereo unspecified)	9	6
28	c1cc(C2=NCCCn3c(CNC4CC4)ccc32)ccn1	-1	8
29	Cc1ccc(S(=O)(=O)N(Cc2nccn2Cc2ccccc2Cl)C2CCCCC2)cc1	8	1
30	Cc1ccn2c(=O)cc(CN3CCCC(N4CCCC4=O)C3)nc2c1 (stereo unspecified)	4	6
31	O=C(Cc1ccccc1)Nc1ccc(C(=O)Nc2nccs2)cc1	-4	-3
32	CCC(NCc1cnc(SC)nc1N1CCN(c2ccc(F)cc2)CC1)c1ccccc1 (stereo unspecified)	3	3
33	O=C(Nc1cccc(Cc2nc3cc(Cl)ccc3o2)c1)c1ccc(Cl)c(Cl)c1	0	-9
34	CCCC(=O)Nc1c(-c2ccc3c(c2)OCO3)c(=O)c2ccccc2n1C	0	5
35	O=C(N=C1N=C2C=CC(Br)=CN2Cc2ccccc21)C1CC1	10	14
36	Cc1nc2ccccc2nc1N1CCN(S(=O)(=O)c2ccc(Br)cc2)CC1	8	13
37	O=c1[nH]cnc2c1CCN(S(=O)(=O)Cc1cc(Cl)cc(Cl)c1)C2	0	7
38	O=S1(=O)C=C2C(C1)SC(=S)N2C1CCS(=O)(=O)C1 (stereo unspecified)	-1	-1
39	C=CCNC(=O)Cn1cc(OC)c(=O)cc1CN1CCN(c2ccc(F)cc2)CC1	0	1
40	O=C(O)c1cc2ccccc2cn1	-1	0
41	Cc1ccc(C(=O)N2CCCC(c3[nH]ncc3-c3ccc(F)cc3)C2)c(=O)n1C (stereo unspecified)	-7	-3
42	COc1ccc(NC(=O)c2oc3ccccc3c2NC(=O)c2ccc(Cl)c([N+](=O)[O-])c2)cc1	-1	-2
43	COC(=O)c1cc(Nc2ccc(OC)c(Cl)c2)c2cccc(C)c2n1	0	-1
44	Cc1ccc(N=c2scc(-c3ccccc3)n2N2CCOCC2)cc1C	-8	-5
45	Cc1ccc(/C=C2\SC(=S)N(CC(=O)Nc3nnc(C)s3)C2=O)cc1	-11	-7
46	COc1ccc(C(=O)NCCc2nnc3ccc(SCC(N)=O)nn23)cc1	-20	-16
47	CCS(=O)(=O)c1cccc(C(=O)N(Cc2ccccn2)c2nc3cc(OC)ccc3s2)c1	-4	-2
48	CC(c1ccc(-c2cnc3ccccc3c2)cc1)N(C)C (stereo unspecified)	-3	-3
49	CN(Cc1ccsc1)Cc1cc2n(n1)CCNC2	1	1
50	Cc1cc(NC(=O)CN(C)CC(=O)Nc2c(Cl)cccc2Cl)n(-c2ccccc2)n1	5	1
51	CCCN(CC(=O)N(C)C)C(=O)c1cnn(-c2ccccc2Cl)c1	8	11
52	Cn1c(SCC(=O)Nc2cccc(F)c2)nc2c(-c3ccccc3)c[nH]c2c1=O	-6	-1
53	CNC(=O)c1cc(S(=O)(=O)N[C@@H]2C[C@@H](CO)N(C)C2)cs1	5	10
54	C=CCN(Cc1nc2scc(-c3ccccc3OC)c2c(=O)[nH]1)CC(O)COc1ccc(Cl)cc1 (stereo unspecified)	-1	-2
55	CC1C(=O)OC2C1CCC1(C)CCC(=O)C(C)C21 (stereo unspecified)	-5	-3
56	O=C1OC(/C=C/c2ccccc2)=NC/1=C/C=C/c1ccccc1	0	6

# Next entries.
no.	SMILES	NPYLR7 agonist max-min	NPYLR7 agonist
57	c1ccc(CN2CCCC(CNc3nc4nonc4nc3N3CCOCC3)C2)cc1 (stereo unspecified)	-6	-3
58	Cc1ccc(F)c(C(=O)N2CCN(C(c3ccccc3)c3ccc(Br)cc3)CC2)c1F (stereo unspecified)	28	22
59	CC(C)C(NC(=O)c1cccc(N2CCOC2=O)c1)c1cccs1 (stereo unspecified)	-2	0
60	Cc1ccc(C(=O)Nc2cc(-c3nc4ccccc4o3)ccc2Cl)cc1[N+](=O)[O-]	-3	0
61	Cc1ncsc1CCN(C)C(=O)/C=C/c1cnn(C)c1	1	3
62	Cc1ccccc1CN1CCN(c2ccccc2F)C(=O)C1C (stereo unspecified)	8	-1
63	Cn1cccc1C(O)=CS(=O)(=O)c1ccc(Cl)c(C(F)(F)F)c1	10	13
64	CC(C)(C)c1ccc(CSc2nnc(NC(=O)c3cccc(Cl)c3)s2)cc1	20	13
65	Cc1cc(Cl)ccc1-c1cc2nc(NCCCN(C)C)n(C)c(=O)c2s1	0	5
66	CSCCCN(C)Cc1cc(-c2ccccc2)no1	4	6
67	CCCCN(CC(=O)N1CCc2sccc2C1c1ccc(C(C)(C)C)cc1)C(=O)COCc1ccccc1 (stereo unspecified)	7	-3
68	Cc1ccc(C)c(C(=O)NCCN2CCCCCC2)c1	0	2
69	CC(C)Cc1noc(C(C)NC(=O)c2cnn3ccccc23)n1 (stereo unspecified)	2&1	4&1
70	CCC(C)C(=O)N1CSCC1C(=O)OCc1cn2cc(Cl)cc(Cl)c2n1 (stereo unspecified)	-3	1
71	O=C(Cn1cnc2c(nnn2Cc2ccccc2)c1=O)N1CCN(c2ccccc2)CC1	7	7
72	Cc1ccc(-c2c(C)n([O-])c3c([n+]2=O)CCCC3)o1	3	15
73	COc1ccc(/C=C/C(=O)Oc2coc(CSc3ncccn3)cc2=O)cc1OC	-6	-12
74	Cc1ccc(C2=NOC(CN(Cc3cccc(Cl)c3)C(=O)NC(C)(C)C)C2)cc1 (stereo unspecified)	22	22
75	Cc1cnc(C)c(-c2ccc3c(c2)CC(CNC(=O)CSc2ccccn2)O3)n1 (stereo unspecified)	-1	1
76	O=C(O)CN1C(=O)/C(=C\c2cccc(I)c2)SC1=S	3	-6
77	NCc1ccc(S(N)(=O)=O)s1	12	11
78	CNC(=O)C1CCC(Cn2c(=O)c3sccc3n(Cc3ccccc3C)c2=O)CC1 (stereo unspecified)	-4	4
79	COc1ccc(-c2cc3c(=O)n(CC(=O)Nc4ccc(C)cc4)ccn3n2)cc1OC	3	5
80	Cc1cccc(-n2nc(C(=O)N3CCCC3)c(=O)n(Cc3ccccc3C)c2=O)c1	10	13
81	CC(C)(C)c1ccc(S(=O)(=O)N2CCCC(C(=O)NC3CCCC[C@H]3NC(=O)c3ccc(F)cc3)C2)cc1 (stereo partly specified)	-1	-2
82	O=c1oc2c(Cl)cc(Cl)cc2cc1-c1nnc(Nc2ccc(F)cc2)s1	-2	2
83	O=C(CSc1ncccn1)Nc1nccs1	-11	-7
84	COc1ccc(-c2csc(-c3cc4cc(Cl)ccc4oc3=O)n2)cc1	-7	-1
85	CCOc1ccc(NC(=O)CSc2ccc3nnc(-c4ccc(OC)c(OC)c4)n3n2)cc1	9	11
86	Cc1ccc(F)c(C(=O)NCc2cn3ccccc3n2)c1Cl	6	20
87	CN(C(=O)CSc1nnc(-c2cccs2)o1)C1CCS(=O)(=O)C1 (stereo unspecified)	12	14
88	CCS(=O)(=O)Nc1ccc(S(=O)(=O)Nc2nc(C)cc(C)n2)cc1	15	8

# Full records from above. Values in the order: NPYLR7 agonist max-min	NPYLR7 agonist
# Listed for CCc1[nH]n(-c2ccc(Cl)cc2)c(=O)c1C1=C([n+]2ccccc2)C(=O)N(c2cccc(C)c2)C1=O : 6	10
# Listed for Cc1ccn2c(=O)cc(CN3CCCC(N4CCCC4=O)C3)nc2c1 (stereo unspecified) : 4	6
# Listed for c1ccc(CN2CCCC(CNc3nc4nonc4nc3N3CCOCC3)C2)cc1 (stereo unspecified) : -6	-3
# Listed for Cc1cc2cccc(C(=O)N3CCOC4(CNCCOC4)C3)c2o1 (stereo unspecified) : 4	5
# Listed for CCCCCCSc1nnc2c(n1)OC=Nc1ccccc1-2 : 5	8

# (continued)
no.	SMILES	NPYLR7 agonist max-min	NPYLR7 agonist
89	Cc1ccc(NC(=O)N2CCC(n3cc(C(C)(C)C)nn3)CC2)cc1	0	1
90	CC(=O)Nc1ccc(CC2CCN(Cc3ccc(Cl)c(Cl)c3)CC2)cc1	7	0
91	CC(C)CNC(=O)Cn1cnc2sc3c(c2c1=O)CCCC3	0	4
92	O=c1[nH]nc(CCc2ccccc2)n1Cc1ccccc1F	0	-1
93	Cc1ccc(CN(CCc2ccccc2)C(=O)CN(C(=O)c2ccc(Cl)cc2)C2CCCCC2)o1	13	11
94	CC(C)CCN(Cc1c(-c2ccccc2)noc1N1CCCCC1)C(=O)c1cccc(Br)c1	5	4
95	CCCCOCCOCC(=O)N1CCN(Cc2ccc(-c3noc(-c4cccc(Cl)c4)n3)cc2)CC1	10	19
96	CC(=O)N[C@H]1C[C@@H](c2c(C)cccc2C)O[C@@H](c2cc(F)cc(F)c2)C1	24	2
97	OC1CCC(Nc2nccc3[nH]c(-c4cccc(C(F)(F)F)c4)nc23)CC1 (stereo unspecified)	-13	-5
98	CNC(=O)NC(=O)C(C)Sc1nnc(Nc2ccccc2C)s1 (stereo unspecified)	2	0
99	CC(C)Cn1c(=S)[nH]c2sc3c(c2c1=O)CCCC3	-6	-3
100	Cc1nnsc1C(=O)NC(C)c1cnn(-c2ccccn2)c1C (stereo unspecified)	5	10
101	O=C(c1coc(CN(Cc2ccc(C(F)(F)F)cc2)Cc2ccc3c(c2)OCO3)n1)N1CCCC1	14	3
102	CC1(C(=O)Nc2ccccc2Cc2ccccc2)CCN1Cc1cc2ccccc2o1 (stereo unspecified)	4	6
103	O=C(O)Cn1nnc(-c2cccs2)n1	0	-1
104	CC(C)(C)N(CC#Cc1ccccc1)Cc1ncccc1C(=O)O	12	21
105	O=S(=O)(Nc1ccccc1F)c1ccc(Br)s1	1	2
106	CCC(c1nc2ccccc2c(=O)n1-c1ccc(F)c(Cl)c1)N(CCc1ccccc1)C(=O)COCc1ccccc1 (stereo unspecified)	3	-7
107	CCOc1cc(/C=C2/SC(=S)N(CC(=O)O)C2=O)c(Br)c(Br)c1O	33	18
108	Cc1[nH]cnc1-c1nccn1Cc1ccco1	2	0
109	CCOC(=O)c1ccccc1NC(=O)CSc1nc2c(-c3ccccc3)c[nH]c2c(=O)n1C	-11	-3
110	CCN(CC)c1nc(SC)ncc1CNCc1ccco1	13	11
111	COc1ccc(S(=O)(=O)N(C(=O)c2ccncc2)c2ccc3oc(C)c(C(C)=O)c3c2)cc1	0	2
112	Cc1nn(CC(=O)NCCCCOc2ccccc2)c(C)c1[N+](=O)[O-]	9	-5
113	Cc1ccc2cccc(S(=O)(=O)N3CCC(C(=O)O)CC3)c2n1	-3	-1
114	CC1CC(C)CN(S(=O)(=O)NCc2ccc(NC(=O)C(C)C)cc2)C1 (stereo unspecified)	-4	-2
115	O=C(Nc1ccc2c(c1)CCCN2S(=O)(=O)c1cccs1)c1cc(Cl)ccc1[N+](=O)[O-]	3	-4
116	CC(=O)NCCOc1ccc(C(=O)Nc2cnc3n2CCCC3)cc1	-4	1
117	COC(=O)C1CCN(C(c2cccs2)C2Sc3ncnn3C2=O)CC1 (stereo unspecified)	12	15
118	O=C1NCCN(C(=O)c2ccc(Cl)cc2)C1Cc1ccccc1 (stereo unspecified)	-5	-5
119	CCNc1nc(-c2ccc(S(=O)(=O)N3CCCC3)cc2)cs1	-8	-7
120	Cc1nc2sc3c(c2c2nnnn12)CCC3	4	4

# Compound activity (PubChem)
